Screening results: PubChem BioAssay, Broad Institute
STAT3 SMM – STAT3 binders, primary screen, biochemical, small molecule microarray, single point, set 2; Signal transducer and activator of transcription 3 (Homo sapiens), P40763; His-STAT3 binding, anti-His fluorescence; calls only; 17,000 tested, 0.2% active; AID 624138, 2012;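 active = compounds whose four printed spots each show fluorescence over background unusually high for their array block, chance value under 7%; compounds were printed on slides so no solution concentration is given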;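 note: about 2 pmol printed per array spot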
Target sequence (P40763 whole entry, looked up): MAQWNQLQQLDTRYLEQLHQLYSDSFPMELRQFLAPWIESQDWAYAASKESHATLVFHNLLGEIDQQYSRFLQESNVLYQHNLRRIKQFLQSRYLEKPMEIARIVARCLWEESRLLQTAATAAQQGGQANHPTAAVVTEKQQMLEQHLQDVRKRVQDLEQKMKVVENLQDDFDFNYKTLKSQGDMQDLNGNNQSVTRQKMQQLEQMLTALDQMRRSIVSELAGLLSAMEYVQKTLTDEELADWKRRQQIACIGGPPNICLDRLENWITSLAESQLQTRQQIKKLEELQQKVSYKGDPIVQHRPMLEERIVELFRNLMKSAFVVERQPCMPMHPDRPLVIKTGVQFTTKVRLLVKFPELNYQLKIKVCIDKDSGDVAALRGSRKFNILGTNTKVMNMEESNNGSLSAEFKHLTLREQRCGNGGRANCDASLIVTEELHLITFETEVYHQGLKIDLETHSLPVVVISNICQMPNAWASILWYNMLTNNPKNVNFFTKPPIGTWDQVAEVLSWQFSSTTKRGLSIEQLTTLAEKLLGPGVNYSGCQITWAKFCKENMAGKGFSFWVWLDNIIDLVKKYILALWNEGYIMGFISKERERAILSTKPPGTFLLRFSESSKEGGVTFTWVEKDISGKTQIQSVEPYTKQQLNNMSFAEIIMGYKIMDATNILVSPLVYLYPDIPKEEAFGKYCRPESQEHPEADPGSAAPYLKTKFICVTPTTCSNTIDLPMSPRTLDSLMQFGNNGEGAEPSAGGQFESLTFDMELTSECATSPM
ID4 SMM – binders of human ID4 protein, primary screen, biochemical, small molecule microarray, single point; DNA-binding protein inhibitor ID-4 (Homo sapiens), P47928; Flag-ID4 binding, fluorescence F/B; calls only; 31,000 tested, 1.2% active; AID 624137, 2012;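 active = spot signal over background at p below 0.07 in all four prints; compounds were printed on slides so no solution concentration is given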;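 note: a binder raises fluorescence above local background on the spot; about 2 pmol printed per array spot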
Target sequence (P47928 whole entry, looked up): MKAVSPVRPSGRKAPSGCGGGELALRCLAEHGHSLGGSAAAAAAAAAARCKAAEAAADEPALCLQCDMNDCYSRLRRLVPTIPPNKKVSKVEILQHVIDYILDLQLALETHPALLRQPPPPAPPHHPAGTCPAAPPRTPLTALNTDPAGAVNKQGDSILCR
Myc binder – binders of human c-Myc, primary screen, biochemical, small molecule microarray, anti-His fluorescence | 17,000 tested, 1.5% active | calls only | His-c-Myc binding | Myc proto-oncogene protein (Homo sapiens), P01106;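 active = spot fluorescence over background with P-value below 7% in all four replicate spots, showing protein binding; compounds were printed on slides so no solution concentration is given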;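 note: score is binary with 100 for all four spots passing and 0 otherwise; about 2 pmol printed per array spot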
p53 mut binder – binders of human mutant p53, primary screen, biochemical, small molecule microarray, anti-GST fluorescence. mutant tumor protein p53 (GST-tagged), Homo sapiens. calls only. AID 624136, 2012. 17,000 tested, 0.4% active. small molecule microarray binding;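 active = compounds whose four printed spots each glow above background more than chance allows, each with a p-value under 7%; compounds were printed on slides so no solution concentration is given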;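 note: about 2 pmol printed per array spot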
Calls only; i = inactive; . = not tested or not shown. These rows are one share of the data. The share of hits here may be higher or lower than overall.

SMILES	p53 mut binder	STAT3 SMM	ID4 SMM	Myc binder
C[C@@H]1CN([C@@H](C)CO)C(=O)c2cccc(NS(C)(=O)=O)c2O[C@H]1CN(C)Cc1ccc2c(c1)OCO2	i	i	i	i
COc1ccc(S(=O)(=O)N(C)C[C@H]2Oc3c(NC(=O)C4CCOCC4)cccc3C(=O)N([C@H](C)CO)C[C@@H]2C)cc1	i	i	i	i
COc1ccc(NC(=O)Nc2ccc3c(c2)C(=O)N([C@H](C)CO)C[C@@H](C)[C@@H](CN(C)C)OCCCC[C@@H](C)O3)cc1	i	i	.	i
O=C(NCCCN1CCOCC1)c1cccc([N+](=O)[O-])c1	i	i	i	i
CCC(=O)c1ccc(OCC(O)Cn2nc(C)cc2C)cc1 (stereo unspecified)	i	i	i	i
CN(C)CCCN1C(=O)C(=O)C(C(=O)c2cccs2)C1c1ccc(Cl)c(Cl)c1 (stereo unspecified)	i	i	i	i
C[C@@H]1CCCCO[C@@H](CN(C)Cc2ccc(C(=O)O)cc2)[C@@H](C)CN([C@@H](C)CO)C(=O)c2cc(NC(=O)c3ccncc3)ccc2O1	i	i	i	i
C[C@H]1CN([C@@H](C)CO)C(=O)c2cccc(NS(=O)(=O)c3ccc(F)cc3)c2O[C@H]1CN(C)Cc1ccc(C(F)(F)F)cc1	i	i	i	i

(more compounds)
SMILES	p53 mut binder	STAT3 SMM	ID4 SMM	Myc binder
Cc1noc(C)c1NC(=O)Nc1cccc2c1O[C@H](CN(C)C)[C@H](C)CN([C@@H](C)CO)C2=O	i	i	i	i
COc1ccc(S(=O)(=O)Nc2cccc3c2O[C@@H](CN(C)C)[C@H](C)CN([C@H](C)CO)C3=O)cc1	i	i	i	i
C[C@@H]1CN([C@@H](C)CO)C(=O)c2cc(NS(=O)(=O)c3cccs3)ccc2O[C@@H](C)CCCCO[C@@H]1CN(C)C(=O)Nc1ccc2c(c1)OCO2	i	i	.	i
C[C@H](CO)N1C[C@H](C)[C@H](CN(C)S(=O)(=O)c2ccc(F)cc2)OCCCC[C@H](C)Oc2ccc(NC(=O)C3CCCCC3)cc2C1=O	i	i	i	i
C[C@H](CO)N1C[C@H](C)[C@@H](CN(C)C(=O)Nc2ccccc2)Oc2c(NC(=O)C3CC3)cccc2C1=O	i	i	i	i
O=C1C[C@@](C(=O)NCc2ccccc2)(c2ccc([N+](=O)[O-])cc2)[C@@H](c2ccc(CO)cc2I)N1CC12CC3CC(CC(C3)C1)C2	i	i	i	i
C[C@@H]1CN([C@@H](C)CO)C(=O)c2cccc(NS(=O)(=O)c3ccccc3)c2O[C@H]1CN(C)C(=O)NC1CCCCC1	i	i	i	i
Cc1ccc([N+](=O)[O-])cc1NC(=O)c1cc(S(=O)(=O)N2CCOCC2)c(Cl)cc1Cl	i	i	i	i

The list goes on.
SMILES	p53 mut binder	STAT3 SMM	ID4 SMM	Myc binder
C1=C(CN2CCOCC2)COc2c1cccc2OCC1CNCCO1 (stereo unspecified)	i	i	i	i
CCCC(O)C#Cc1cnc2c(c1)C(=O)N([C@H](C)CO)C[C@H](C)[C@H](CN(C)Cc1ccc3c(c1)OCO3)O2 (stereo partly specified)	i	i	i	i
COc1ccc(CN(C)C[C@H]2Oc3ccc(NC(=O)Nc4ccc(C(F)(F)F)cc4)cc3CC(=O)N([C@H](C)CO)C[C@H]2C)cc1	i	i	i	i
COc1ccc(C)cc1CN1CCC(CNC(=O)Nc2cc(Cl)ccc2C)CC1	i	i	i	i
CNC[C@H]1Oc2c(NS(=O)(=O)c3cccs3)cccc2C(=O)N([C@H](C)CO)C[C@H]1C	i	i	i	i
C[C@H](CO)N1C[C@H](C)[C@H](CN(C)Cc2ccc(C(=O)O)cc2)OCCCC[C@H](C)Oc2ccc(NC(=O)Nc3ccc(F)cc3)cc2C1=O	i	i	i	i
COC(=O)C(CC#Cc1ccc2c(c1)[C@]1(C(=O)N2)[C@H](c2ccc(O)cc2)N2[C@H](c3ccccc3)[C@H](c3ccccc3)OC(=O)[C@H]2[C@@H]1C(N)=O)C(=O)OC	i	i	i	i
C[C@H]1CN([C@@H](C)CO)C(=O)CCCn2cc(nn2)CO[C@H]1CN(C)S(=O)(=O)c1ccc(-n2cccn2)cc1	i	i	i	i

The list continues:
SMILES	p53 mut binder	STAT3 SMM	ID4 SMM	Myc binder
COC(=O)c1c(NC(=O)c2c(OC)cccc2OC)sc2c1C(C(=O)OC)CC2 (stereo unspecified)	i	i	i	i
CC(C)NC(=O)N(C)C[C@@H]1OCc2cnnn2CCCC(=O)N([C@H](C)CO)C[C@H]1C	i	i	i	i
CNC[C@@H]1OCCCC[C@H](C)Oc2ccc(NC(=O)Nc3cccc4ccccc34)cc2C(=O)N([C@H](C)CO)C[C@@H]1C	i	i	i	i
C=CC1c2cc(OC)c(OC)cc2CC(C)N1Cc1ccc(OC)cc1 (stereo unspecified)	i	i	i	i
CC(C)NC(=O)Nc1ccc2c(c1)C(=O)N([C@@H](C)CO)C[C@H](C)[C@H](CN(C)C(=O)Cc1ccccc1)OCCCC[C@@H](C)O2	i	i	i	i
C[C@H](CO)N1C[C@H](C)[C@H](CN(C)C)Oc2ccc(NC(=O)Nc3ccc(F)cc3)cc2C1=O	i	i	i	i
Nc1nc(-c2ccc(Cl)c(Cl)c2)c(-c2ccncc2)s1	i	i	.	i
COCC(O)CSc1nc(C)[nH]c1[N+](=O)[O-] (stereo unspecified)	i	i	i	i

Next part
SMILES	p53 mut binder	STAT3 SMM	ID4 SMM	Myc binder
O=C(Cn1ccc([N+](=O)[O-])n1)N1CCOCC1	i	i	i	i
COc1ccc(S(=O)(=O)N(C)C[C@H]2Oc3ccc(NC(=O)CCN4CCOCC4)cc3C(=O)N([C@@H](C)CO)C[C@H]2C)cc1	i	i	i	i
C[C@@H]1CN([C@H](C)CO)C(=O)Cc2cc(NC(=O)Cc3cn(C)c4ccccc34)ccc2O[C@H]1CN(C)CC1CC1	i	i	i	i
C[C@H](CO)N1C[C@H](C)[C@H](CN(C)C(=O)Nc2ccccc2)Oc2c(NC(=O)c3nc4ccccc4s3)cccc2C1=O	i	i	i	i
O=C(Nc1ccccc1)c1ccc(Br)c(S(=O)(=O)Nc2ccccn2)c1	i	i	i	i
C[C@@H]1CN([C@H](C)CO)C(=O)Cc2cc(NC(=O)Nc3ccc(F)cc3)ccc2O[C@H]1CN(C)C	i	i	.	i
C[C@@H]1CCCCO[C@H](CN(C)Cc2ccncc2)[C@@H](C)CN([C@H](C)CO)C(=O)c2cc(N(C)C)ccc2O1	i	i	i	i
C[C@H]1CN([C@@H](C)CO)C(=O)c2cccc(NC(=O)c3ccncc3)c2O[C@@H]1CN(C)C(=O)Nc1ccccc1	i	i	i	i

Compounds shown so far that contain a CF3 group, in the order listed:
SMILES	p53 mut binder	STAT3 SMM	ID4 SMM	Myc binder
C[C@H]1CN([C@@H](C)CO)C(=O)c2cccc(NS(=O)(=O)c3ccc(F)cc3)c2O[C@H]1CN(C)Cc1ccc(C(F)(F)F)cc1	i	i	i	i
COc1ccc(CN(C)C[C@H]2Oc3ccc(NC(=O)Nc4ccc(C(F)(F)F)cc4)cc3CC(=O)N([C@H](C)CO)C[C@H]2C)cc1	i	i	i	i

(continued)
SMILES	p53 mut binder	STAT3 SMM	ID4 SMM	Myc binder
Cc1noc(C)c1S(=O)(=O)Nc1ccc2c(c1)C(=O)N([C@@H](C)CO)C[C@@H](C)[C@@H](CN(C)C(=O)Nc1ccc3c(c1)OCO3)O2	i	i	i	i
Cc1ccc([N+](=O)[O-])cc1NC(=O)Cn1cnc2ccccc2c1=O	i	i	i	i
C[C@@H]1CCCCO[C@H](CN(C)S(=O)(=O)c2cccs2)[C@H](C)CN([C@H](C)CO)C(=O)c2cc(NC(=O)NC3CCCCC3)ccc2O1	i	i	.	i
C[C@@H]1CN([C@H](C)CO)C(=O)Cc2cc(N(C)C)ccc2O[C@@H]1CN(C)S(=O)(=O)c1cccs1	i	i	i	i
COc1ccc(CN(C)C[C@@H]2Oc3ccc(NC(=O)Cn4cnnn4)cc3CC(=O)N([C@@H](C)CO)C[C@@H]2C)cc1	i	i	i	i
Cc1cccc(C)c1OCc1nnc2c3cnn(-c4ccccc4)c3ncn12	i	i	i	i
COc1ccc(CN(C)C[C@@H]2Oc3ccc(NC(=O)Cc4ccccc4)cc3CC(=O)N([C@H](C)CO)C[C@@H]2C)cc1	i	i	i	i
Cc1ccc(C(=O)CCNc2ccc3c(c2)oc2ccccc23)o1	i	i	i	i

(list continues)
SMILES	p53 mut binder	STAT3 SMM	ID4 SMM	Myc binder
C[C@@H]1CCCCO[C@H](CN(C)Cc2ccccc2)[C@@H](C)CN([C@H](C)CO)C(=O)c2cc(NC(=O)CCCN(C)C)ccc2O1	i	i	i	i
C[C@H](CO)N1C[C@H](C)[C@H](CN(C)Cc2ccc3c(c2)OCO3)Oc2ccc(NS(=O)(=O)c3ccccc3)cc2CC1=O	i	i	i	i
Cc1cccc(-c2nnc(SCC(=O)Nc3ccccc3F)o2)c1	i	i	i	i
COc1ccc(C#Cc2ccc3c(c2)[C@]2(C(=O)N3)[C@H](c3ccccc3OCCO)N3[C@H](c4ccccc4)[C@H](c4ccccc4)OC(=O)[C@H]3[C@@H]2C(=O)N2CCN(c3ncccn3)CC2)cc1	i	i	i	i
Nc1ncnc2c1[nH]c(=S)n2CCOc1cccc2ccccc12	i	i	i	i
CNC[C@H]1Oc2ccc(NC(=O)Cc3ccccc3)cc2CC(=O)N([C@@H](C)CO)C[C@H]1C	i	i	i	i
C[C@@H]1CCCCO[C@H](CN(C)Cc2ccc(C(=O)O)cc2)[C@H](C)CN([C@H](C)CO)C(=O)c2cc(NC(=O)C3CCCCC3)ccc2O1	i	i	i	i
C[C@H]1CN([C@@H](C)CO)C(=O)c2cccc(NC(=O)c3ccncc3)c2O[C@@H]1CN(C)C(=O)Nc1cccc2ccccc12	i	i	i	i

New compounds follow.
SMILES	p53 mut binder	STAT3 SMM	ID4 SMM	Myc binder
CC(C)NC(=O)N(C)C[C@H]1OCCCC[C@H](C)Oc2ccc(NC(=O)Nc3ccc4c(c3)OCO4)cc2C(=O)N([C@H](C)CO)C[C@@H]1C	i	i	i	i
C[C@H]1CCCCO[C@H](CN(C)Cc2ccc(C(=O)O)cc2)[C@@H](C)CN([C@@H](C)CO)C(=O)c2cc(NC(=O)C3CCCCC3)ccc2O1	i	i	i	i
C[C@@H]1CN([C@H](C)CO)C(=O)Cc2cc(NC(=O)NC3CCCCC3)ccc2O[C@@H]1CN(C)C(=O)Nc1ccc(C(F)(F)F)cc1	i	i	i	i
COc1ccc(C)cc1S(=O)(=O)N(C)CC(=O)Nc1ccc(F)c(Cl)c1	i	i	i	i
Cc1noc(C)c1NC(=O)Nc1ccc2c(c1)CC(=O)N([C@@H](C)CO)C[C@@H](C)[C@@H](CN(C)S(=O)(=O)c1cccs1)O2	i	i	i	i
COc1ccc(S(=O)(=O)Nc2ccc3c(c2)C(=O)N([C@@H](C)CO)C[C@H](C)[C@@H](CN(C)C(=O)NC2CCCCC2)OCCCC[C@H](C)O3)cc1	i	i	.	i
C[C@H](CO)N1C[C@H](C)[C@H](CN(C)Cc2ccc(C(F)(F)F)cc2)Oc2ccc(N(C)C)cc2C1=O	i	i	i	i
CC(C)NC(=O)N(C)C[C@@H]1Oc2ccc(NC(=O)CCN3CCOCC3)cc2CC(=O)N([C@@H](C)CO)C[C@H]1C	i	i	i	i

The results go on:
SMILES	p53 mut binder	STAT3 SMM	ID4 SMM	Myc binder
C=CC[C@H](OC(=O)Nc1ccc(OC)cc1)c1ccc(OCCO)cc1	i	i	i	i
Cc1noc(C)c1S(=O)(=O)Nc1cccc2c1O[C@H](CN(C)C(=O)Nc1ccc(F)cc1)[C@H](C)CN([C@H](C)CO)C2=O	i	i	i	i
O=C(NCCCN1CCOCC1)c1ccc2nc(-c3ccccc3)c(-c3ccccc3)nc2c1	i	i	i	i
Nc1nc(SCC(=O)N2CCCc3ccccc32)[nH]c(=O)c1-c1ccccc1	i	i	i	i
Cc1noc(C)c1NC(=O)Nc1cccc2c1O[C@@H](CN(C)C(=O)NC1CCCCC1)[C@@H](C)CN([C@@H](C)CO)C2=O	i	i	i	i
CNC[C@H]1Oc2c(NS(=O)(=O)c3ccc(Cl)cc3)cccc2C(=O)N([C@@H](C)CO)C[C@@H]1C	i	i	i	i
C[C@@H]1CN([C@@H](C)CO)C(=O)c2cc(NC(=O)NC3CCCCC3)ccc2O[C@@H]1CN(C)C(=O)Nc1cccc2ccccc12	i	i	i	i
C[C@@H]1CCCCO[C@H](CN(C)Cc2ccccc2)[C@@H](C)CN([C@H](C)CO)C(=O)c2cc(NS(C)(=O)=O)ccc2O1	i	i	i	i
COc1ccc(CN(C)C[C@@H]2Oc3ccc(NC(=O)Nc4cccc5ccccc45)cc3CC(=O)N([C@@H](C)CO)C[C@@H]2C)cc1	i	i	i	i
C[C@@H]1CCCCO[C@@H](CN(C)C(=O)CCCN(C)C)[C@@H](C)CN([C@H](C)CO)C(=O)c2cc(N(C)C)ccc2O1	i	i	i	i
CCc1cc(-c2n[nH]c(C(=O)O)c2-c2nc(C)cs2)c(O)cc1O	i	i	i	i
